# YopH PTP inh = inhibitors of Yersinia enterocolitica YopH tyrosine phosphatase. AID 898. 0.16% of 140,000 active. inhibition, %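 (about 10 µM by stock and volumes)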. fluorescence Ex485/Em525;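 active = inhibition of 50% or more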;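 note: controls were vehicle for no effect and minimum signal wells for full effect; inactives centre near -20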
# RecA splice inh = blocks M. tuberculosis RecA intein splicing | inhibition, %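 (about 9 µM by stock and volumes)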 | 0.75% of 290,000 active | cell-free RecA intein splicing, fluorescence; in the data active = inhibition above about 30%; inconclusive = no clear call, values can overlap the other calls;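 note: 0% = vehicle wells and 100% = reference inhibitor control wells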
# Target sequence (P9WHJ3 whole entry, looked up, canonical isoform): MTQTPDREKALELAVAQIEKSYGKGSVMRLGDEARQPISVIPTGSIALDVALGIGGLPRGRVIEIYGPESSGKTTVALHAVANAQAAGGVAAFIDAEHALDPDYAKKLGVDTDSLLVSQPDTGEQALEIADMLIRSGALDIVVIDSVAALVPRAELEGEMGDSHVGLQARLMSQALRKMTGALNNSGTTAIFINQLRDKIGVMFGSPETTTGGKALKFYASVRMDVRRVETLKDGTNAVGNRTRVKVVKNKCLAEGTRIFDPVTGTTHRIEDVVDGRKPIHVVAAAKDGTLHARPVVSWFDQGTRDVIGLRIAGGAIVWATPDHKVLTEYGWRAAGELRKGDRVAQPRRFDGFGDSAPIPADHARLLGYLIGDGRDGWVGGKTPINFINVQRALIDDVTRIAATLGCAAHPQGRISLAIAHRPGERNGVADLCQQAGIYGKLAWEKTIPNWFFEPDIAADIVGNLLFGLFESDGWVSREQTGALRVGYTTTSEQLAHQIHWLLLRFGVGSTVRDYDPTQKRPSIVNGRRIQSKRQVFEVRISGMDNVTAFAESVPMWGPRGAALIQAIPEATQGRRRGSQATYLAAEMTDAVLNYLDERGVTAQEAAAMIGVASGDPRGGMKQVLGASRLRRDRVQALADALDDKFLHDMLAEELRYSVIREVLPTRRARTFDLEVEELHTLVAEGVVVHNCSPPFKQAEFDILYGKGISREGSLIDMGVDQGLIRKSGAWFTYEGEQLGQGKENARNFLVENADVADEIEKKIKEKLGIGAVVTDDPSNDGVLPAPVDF
# Arbovirus inh = blocks arbovirus infection; arbovirus infection cell-based antiviral screen; inhibition, % at 10 µM; 0.37% of 200,000 active; AID 1251;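 active = inhibition from about 30%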;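 note: bluetongue infection of BSR cells; cell survival read as ATP light after 72 h; 0% = infected wells without compound and 100% = uninfected wells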
# Mtb H37Rv = M. tuberculosis H37Rv growth inhibitors, H37Rv strain (AID 1626) | M. tuberculosis H37Rv growth inhibition; higher % means a stronger effect | inhibition, % at 10 µM, or IC50 in µM where a hit was titrated | 0.95% of 220,000 active;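 active = confirmed in a dose series; inconclusive = inhibition above 80% but not taken into the dose series; inactive = below 80% or under 30% at every dose of the series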;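 note: bacteria incubated seven days before Alamar blue readout; 0% = bacteria only wells and 100% = bacteria with antibiotic wells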
# Mtb bLac sens = beta-lactam sensitization of Mtb H37Rv. inhibition, % at 25 µM. M. tuberculosis H37Rv growth with meropenem, percent inhibition; hits of this screen are not shown here. 0.27% of 330,000 active. AID 434955;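 active = about 74% or more and at least 40 points above the plate without the antibiotic, then above 30% in a dose series; inconclusive = first-round hits that could not be retested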;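 note: growth measured after seven days incubation then overnight dye step; 0% = bacteria only wells and 100% = bacteria with antibiotic; twin plates without the antibiotic show which effects depend on it; some results filed as inactive read as strong as hits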
# Arbovirus inh repeat = second read-out of Arbovirus inh, no call of its own (marks repeat the call); inhibition, %; measured here: 10K subset replicate screen; many hits read low in the repeat;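 first of two repeat runs on a subset; 0% = infected and 100% = uninfected wells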
# Numbers without * were called inactive; ? = inconclusive; . = no result given.
# Start of the data: the first 4 entries, ahead of the listing:
SMILES,YopH PTP inh,RecA splice inh,Arbovirus inh,Mtb H37Rv,Mtb bLac sens,others
CSc1ccc(C(=S)N2CCN(C(c3ccccc3)c3ccccc3)CC2)cc1,-13,14,-3,-2%,-10,
Cc1nc(Nc2ccc(S(N)(=O)=O)cc2)sc1C(=O)Nc1ccccc1,.,-0.5,3,3%,0,
O=C(c1ccccc1NS(=O)(=O)c1ccc(Br)cc1)N1CCOCC1,.,-1.3,.,.,3,
CC(=O)/C=C(\C)Nc1ccc(-c2cnc(-c3ccccc3)o2)cc1,-7,10,-4,82%,75,

# The whole of this part, from the start:
SMILES,YopH PTP inh,RecA splice inh,Arbovirus inh,Mtb H37Rv,Mtb bLac sens,others
CSc1ccc(C(=S)N2CCN(C(c3ccccc3)c3ccccc3)CC2)cc1,-13,14,-3,-2%,-10,
Cc1nc(Nc2ccc(S(N)(=O)=O)cc2)sc1C(=O)Nc1ccccc1,.,-0.5,3,3%,0,
O=C(c1ccccc1NS(=O)(=O)c1ccc(Br)cc1)N1CCOCC1,.,-1.3,.,.,3,
CC(=O)/C=C(\C)Nc1ccc(-c2cnc(-c3ccccc3)o2)cc1,-7,10,-4,82%,75,
COc1cc2c(cc1OC)C1=NC(=O)CN1C(SCc1ccc(C)cc1)=N2,-26,0.1,-9,4%,2,
Cc1ccc(C)c(NC(=O)CN(C)C(=O)c2ccncc2)c1,.,18,.,.,5,
O=C1COc2ccc(C(=O)NCc3ccc4c(c3)OCO4)cc2N1,-60,-0.9,-14,-7%,-12,
Cc1cc(C)nc(NC(=O)c2ccc3c(c2)OCO3)c1,.,5.6,-7,3%,-6,
CC(C)CCn1nnnc1C(c1ccccc1F)N1CCC(C(N)=O)CC1 (stereo not given),-25,1.0,2,7%,-4,
NS(=O)(=O)c1cc(C(=O)NCCOc2ccccc2)c(Cl)cc1Cl,-36,-1.7,1,-3%,-1,
NC(=O)c1cc(S(=O)(=O)NCCc2ccc(Cl)cc2)cs1,.,0.2,.,.,-5,
O=C(CCN1CCOCC1)NNC(=O)Nc1cccc(C(F)(F)F)c1,.,0.3,.,.,0,
O=c1oc2ccccc2n1Cc1cccc(F)c1,.,1.2,.,.,-10,
CN(C)C(/C=C/Nc1ccc(Br)cc1)=C(C#N)C#N,.,.,0,-6%,0,
CCN1CC(CN(C)Cc2nc(-c3cccs3)no2)CC1=O (stereo not given),.,-2.6,3,2%,-1,
O=C1CCCN1c1ccc(S(=O)(=O)Oc2cccc(Cl)c2)cc1[N+](=O)[O-],-31,2.1,2,5%,-7,
CCCCn1nc2cc(C(=O)NCc3ccccc3)ccc2c1OCC,-3,2.7,-2,-6%,50,
O=C(OCC(=O)N(C1CCCCC1)C1CCCCC1)c1ccco1,-20,1.5,13,-7%,-14,
CCOC(=O)c1nnn2c1nc(N1CCCCC1)c1ccccc12,.,11,.,-1%,-15,
Cc1ccc(CNC(=O)CCS(=O)(=O)c2ccc3c(c2)NC(=O)CO3)cc1,.,0.1,.,.,1,

# 5 structures already listed, arranged by SMILES length, low to high.
SMILES,YopH PTP inh,RecA splice inh,Arbovirus inh,Mtb H37Rv,Mtb bLac sens,others
O=c1oc2ccccc2n1Cc1cccc(F)c1,.,1.2,.,.,-10,
CCN1CC(CN(C)Cc2nc(-c3cccs3)no2)CC1=O (stereo not given),.,-2.6,3,2%,-1,
CCCCn1nc2cc(C(=O)NCc3ccccc3)ccc2c1OCC,-3,2.7,-2,-6%,50,
O=C(OCC(=O)N(C1CCCCC1)C1CCCCC1)c1ccco1,-20,1.5,13,-7%,-14,
O=C(CCN1CCOCC1)NNC(=O)Nc1cccc(C(F)(F)F)c1,.,0.3,.,.,0,

# Carrying on.
SMILES,YopH PTP inh,RecA splice inh,Arbovirus inh,Mtb H37Rv,Mtb bLac sens,others
CCOC(=O)c1cc(-c2ccccc2)sc1NC(=O)C(C)OC(=O)c1ccncc1 (stereo not given),-20,-0.5,-6,1%,11,
COc1cc(N2CCCC2)c(OC)cc1C=O,.,1.8,12,1%,4,
Cc1ccc(-c2csc3nnc(SCC(=O)NCc4ccc5c(c4)OCO5)n23)cc1,-4,-1.2,5,-5%,-9,
COc1cccc(NC(=O)CCCn2nc(C)c3c(C)n(-c4ccccc4)nc3c2=O)c1,.,-2.3,.,.,-2,
C=C(C)CN(CC)C(=O)COc1ccc(S(=O)(=O)Nc2ccc(OC)cc2)cc1,-6,4.4,5,4%,-29,
COc1cc(Cl)ccc1OCc1cc(C(=O)N2CCCCC2c2cccnc2)no1 (stereo not given),.,4.3,.,.,0,
COc1ccc2oc(=O)cc(CN3CCN(Cc4ccc(OC)c(OC)c4OC)CC3)c2c1,.,-1.2,.,.,-6,
CCN(CC1CCCN(CCc2cccc(OC)c2)C1)C(=O)C=C(C)C (stereo not given),.,0.2,.,.,-5,
CCn1c(CNC(C)=O)nnc1SCC(=O)c1ccc(Br)cc1,-26,-1.0,3,-2%,1,
O=C(NCc1cccc(Cl)c1)c1cc(COc2ccc3ncccc3c2)on1,.,12,-17,58%,95,
CCCCc1nc2c(C)c(N)cnc2n1Cc1cccc([N+](=O)[O-])c1,.,0.0,.,.,-7,
C=CCN=C1NN=C(c2cc(C)n(CCOC)c2C)CS1,-31,3.3,7,2%,-3,
N#CCCN(Cc1ccccc1)C(=S)NC(=O)c1ccccc1,-9,3.8,-2,?,94,
Cc1ccc(/C=N/Nc2cccc3cccnc23)c(O)c1,-21,3.4,-2,9%,73,
COc1ccc(N2CCN(C(=O)Nc3ccc(S(=O)(=O)N(C)C)cc3)CC2)cc1,-40,0.4,5,-9%,-6,
COc1cc(/C=N\NC(=O)C(C)(C)O)ccc1OC/C=C/c1ccccc1,.,3.2,.,.,-2,
CCOc1ccc(NC(=O)CSc2nnc(-c3cc(C)[nH]n3)n2N)cc1,.,0.6,.,.,21,
C=CCn1c(=O)c(C(=O)Nc2ccc(C)cc2)c(O)c2ccccc21,.,-7.1,.,.,-2,
CC(C)c1ccc2c(c1)C(c1cccs1)=NNC(c1ccncc1)=N2,.,20,-11,0%,22,
Cc1ccc(C)c(N(CC(=O)NC2CCCC2)C(=O)CCC(=O)Nc2cc(C)on2)c1,.,-3.2,.,.,-4,
COc1cccc(NC(=O)c2cc3cccc(OC)c3o/c2=N\O)c1,.,0.7,.,.,-2,
N#Cc1cn(CCOc2ccc(F)cc2)c2ccccc12,31,-2.4,-2,10%,83,
CCCc1cc(=O)n(-c2nc3ccccc3s2)[nH]1,.,1.2,.,-3%,15,
O=C(COC(=O)Cc1ccsc1)Nc1ccc(S(=O)(=O)N2CCOCC2)cc1,16,.,2,-5%,6,
COc1ccc(NC(=O)C2CCCN(S(C)(=O)=O)C2)cc1Cl (stereo not given),.,-0.8,.,.,-13,
CC1(O)N(CCC(=O)Nc2cccc(F)c2)C(=O)OC12CCCCC2 (stereo not given),.,-0.8,1,1%,-6,
CCOc1ccccc1N1CCN(C2=C(NS(=O)(=O)c3cccs3)C(=O)c3ccccc3C2=O)CC1,-17,18,-26,15%,60,
Cc1ccc(NC(=O)Cn2c([N+](=O)[O-])cnc2C)cc1Cl,.,-4.2,.,.,4,
CCOC(=O)C1CCN(C(=O)c2ccc(Oc3cc(Cl)cc(Cl)c3)o2)CC1,.,15,.,6%,-1,
O=C(O)CCCN=CC1=C(O)C(C(=O)c2ccccc2)CCC1=O (stereo not given),-16,2.1,18,0%,-2,

# 2 compounds picked at random from those above, as already listed:
SMILES,YopH PTP inh,RecA splice inh,Arbovirus inh,Mtb H37Rv,Mtb bLac sens,others
COc1cccc(NC(=O)c2cc3cccc(OC)c3o/c2=N\O)c1,.,0.7,.,.,-2,
COc1ccc(NC(=O)C2CCCN(S(C)(=O)=O)C2)cc1Cl (stereo not given),.,-0.8,.,.,-13,

# The results go on.
SMILES,YopH PTP inh,RecA splice inh,Arbovirus inh,Mtb H37Rv,Mtb bLac sens,others
CC(OCC(O)CN(C)CCOc1ccccc1)c1ccc(Cl)cc1 (stereo not given),-1,1.4,-20,-3%,3,
O=C(c1cc2c(ccc3ccccc32)o1)N1CCCCC1,.,5.8,.,.,4,
CCOc1ccc(NC(=O)CNC(=O)c2ccc(OC)cc2)cc1,.,0.6,-4,-3%,5,
Nc1c(-c2nn[nH]n2)cnn1-c1cc(Cl)cc(Cl)c1,.,-0.9,.,-1%,-9,
CCCn1c(C(C)Nc2nc(-c3ccc(Cl)c([N+](=O)[O-])c3)cs2)nc2ccccc21 (stereo not given),.,12,.,.,6,
COc1ccc(C(CNC(=O)COc2ccc(Cl)c(C)c2)N2CCCCC2)cc1 (stereo not given),.,3.9,.,.,6,
CCOc1ccc(N(Cc2nnc3n2CCCCC3)C(=O)Nc2cccc(C)c2)cc1,.,-0.6,1,1%,-2,
O=C(O)CC(C(=O)OCCOc1ccccc1)N1CCOCC1 (stereo not given),-15,.,-2,.,-8,
Cc1cc([N+](=O)[O-])ccc1NC(=O)CN1C2CCC1CC(NC(=O)NC13CC4CC(CC(C4)C1)C3)C2 (stereo not given),.,4.3,-16,3µM*,99,
CCCCCCCCCn1ccc(=N)cc1,.,0.0,.,.,-14,
NS(=O)(=O)c1ccc(Nc2nc(-c3cccc([N+](=O)[O-])c3)cs2)cc1,.,.,3,-2%,1,
CCOc1ccccc1C(=O)NCc1ccc2c(c1)OCO2,-25,0.6,-13,1%,36,
COC(=O)c1ccc2ncccc2c1,-18,3.3,-4,1%,-5,
Cc1ccc(C(=O)NC(=S)N2CCN(C)CC2)cc1,-7,.,10,.,-6,
O=C(N/N=C/c1ccc(Br)cc1)c1ccc(F)cc1,-25,0.1,-11,2%,3,
Cc1c(N=C2N=C(NC(=O)NC(C)(C)C)c3ccccc32)c(=O)n(-c2ccccc2)n1C,.,-6.3,2,1%,0,
O=C(Nc1ccc(NC(=O)c2cccs2)cc1)c1ccc2c(c1)OCO2,.,-0.9,.,.,-2,
COc1ccc(OC)c(N2C(=O)CCCC2=O)c1,.,-2.0,.,.,-3,
CCOC(=O)C1=C(COC(=O)Cc2ccccc2)NC(=O)NC1C (stereo not given),.,-1.5,.,.,-5,
COc1ccc(-n2c(SCC#N)nc3c(sc(=S)n3-c3ccccc3)c2=O)c(OC)c1,.,-2.2,.,.,79,
CCc1ccc(-c2csc(NC(=O)C3CCCO3)c2C(=O)OC(C)C)cc1 (stereo not given),-23,13,-16,-6%,-1,
CC1CC(C)CN(c2ncc3c(n2)CC(c2ccccc2)CC3=O)C1 (stereo not given),-49,-3.8,-15,7%,80,
Cc1noc(C)c1COc1ccc(C(=O)NCc2ccccn2)cc1,-40,0.3,4,2%,6,
Cc1cc(Cl)ccc1OC(C)C(=O)NN1C(=O)c2ccccc2C1=O (stereo not given),.,-0.4,.,.,-5,
O=C(Cc1cc(=O)oc2cc(O)ccc12)N[C@@H](Cc1c[nH]c2ccccc12)C(=O)O,.,-19,.,.,-2,
CCN(CC)CCN1C(=O)C(=O)/C(=C(/O)c2ccc(C)cc2)C1c1ccncc1 (stereo not given),-2,2.1,5,-25%,.,Arbovirus inh repeat=3
CN(Cc1ccccc1)C(=O)c1cc2cc(F)ccc2[nH]1,.,4.3,.,.,2,
Cc1cc(C)c(C#N)c(SCS(=O)c2ccc(C(C)(C)C)cc2)n1 (stereo not given),-27,2.7,-3,6%,1,
O=C(O)CC/C(=N\NC(=O)CNC(=O)/C=C/c1ccccc1)c1ccccc1,.,-0.8,.,-9%,28,
COc1ccc(N(CC(=O)N/N=C/c2cccs2)S(=O)(=O)c2ccc(OC)c(OC)c2)cc1,-25,-4.1,-3,-9%,-1,
S=c1[nH]nc(Cc2ccccc2)n1-c1ccccc1,-9,-5.1,-1,-2%,-11,
CCCCN(CC(=O)NCCOC)C(=O)Cn1nnc2ccccc21,.,0.6,4,-9%,11,
CC(C)Cn1c(=O)c2ccccc2c2ccccc2c1=O,33,9.3,1,-3%,9,
CCCCCOc1ccc(C(=O)NCC(=O)NCC(=O)OCC)cc1,-38,-1.1,-18,5.7µM*,99,
Cn1c(=O)c2c(nc(SCC(=O)NCc3ccc4c(c3)OCO4)n2Cc2ccc(Cl)cc2)n(C)c1=O,-104,2.3,-7,0%,-5,
CC(=O)N1CCN(c2ccc(C(N)=O)cc2[N+](=O)[O-])CC1,.,-0.8,14,0%,0,
CCc1cc2c(=O)nc3n(c2s1)Cc1ccccc1/C3=C(/O)c1cccc([N+](=O)[O-])c1,-29,.,-2,1%,49,
CC1(C)OC(=O)C(=CNc2ccccc2)C(=O)O1,-33,-0.4,5,-6%,-1,
CCOc1cc(Br)c(COc2ccc(C)nc2[N+](=O)[O-])cc1OCC,.,-2.0,.,.,9,
COc1ccc(N2C(=O)C3C4C=CC(C4)C3C2=O)c(OC)c1 (stereo not given),-32,0.3,-2,-7%,5,
CCn1c(N)c(C(=O)NC)sc1=S,-12,-3.5,-6,0%,94,
Cc1cc(C(=O)COC(=O)c2ccco2)c(C)n1Cc1ccco1,.,5.6,3,10%,3,
COc1cc(NC(=O)CSc2ccccc2)c(C(=O)O)cc1OC,-45,-0.2,-7,6%,6,

# Screening results (PubChem BioAssay)

# Only part of the results is shown; count on the stated rates, not on these rows.
